Bioassay records (PubChem BioAssay)
INS promoter inh = TRM-6 insulin promoter activity inhibition | TRM-6 cells (human fetal islet line), insulin promoter-eGFP reporter, imaging; reporter expression induced with tamoxifen | inhibition, % at 2 µM | 130,000 compounds, 0.9% hits | AID 1273;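 active means inhibition above the mean plus 3 SD, with well images judged a real hit on visual review, cut at about 60% in these data, passing the limit was not always enough; inconclusive means inhibition over the cutoff but images rejected on review; inactive means inhibition not above the cutoff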
RGS16-Gao = regulators of human RGS16-Galphao interaction | 220,000 compounds, 0.38% hits | bead-based flow cytometry RGS16-Galphao binding, fluorescence; actives lie on both sides | O15492+P09471 | binding response (% of control), % at 10 µM;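 active means below 25% or above 175%, edge rows of some plates excepted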;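 further: Galphao activated by GDP with aluminum fluoride before binding; 100% = wells without compound and 0% = beads without RGS; some results beyond the cut were filed as inactive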
Target sequence (O15492 whole entry, looked up): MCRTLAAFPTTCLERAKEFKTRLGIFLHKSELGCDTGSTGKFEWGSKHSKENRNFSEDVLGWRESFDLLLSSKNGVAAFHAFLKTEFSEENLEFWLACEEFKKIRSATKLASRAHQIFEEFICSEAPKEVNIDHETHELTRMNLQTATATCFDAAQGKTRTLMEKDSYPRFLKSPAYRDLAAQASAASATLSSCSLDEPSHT
Target sequence (P09471 whole entry, looked up): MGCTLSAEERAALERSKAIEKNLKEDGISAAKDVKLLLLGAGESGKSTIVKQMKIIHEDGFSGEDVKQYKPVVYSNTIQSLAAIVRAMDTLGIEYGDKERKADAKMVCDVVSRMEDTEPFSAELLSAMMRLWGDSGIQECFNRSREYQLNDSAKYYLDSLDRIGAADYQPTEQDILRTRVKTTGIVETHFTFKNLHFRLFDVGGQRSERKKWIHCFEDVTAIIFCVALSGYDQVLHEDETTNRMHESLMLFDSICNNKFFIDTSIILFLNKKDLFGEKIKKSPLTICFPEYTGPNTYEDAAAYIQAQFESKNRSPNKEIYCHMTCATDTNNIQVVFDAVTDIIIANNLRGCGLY
HSV replic up = HSV replication enhancement | HSV replication augmentation in cells, fold increase | 220,000 compounds, 0.005% hits | maximum fold increase;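 active means peak rise of 1.5-fold or more in the series; inconclusive means self-fluorescent or not available for retest; tested in PC3 cells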;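 further: first round at 10 µM; read as green reporter fluorescence; hits show the peak of a series up to 25 µM; 1 = signal of infected wells without compound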
PKD1 inh = PKD1 (human) kinase inhibition. Q15139. PKD1 kinase fluorescence polarization assay. inhibition, %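 (about 10 µM by stock and volumes)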. 200,000 compounds, 0.056% hits;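 active means inhibition of 50% or more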;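 further: controls were vehicle for no effect and a reference inhibitor for full effect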
GALR2 ag = GALR2 (human) receptor agonism | O43603 | GALR2-expressing cells, agonist activation read-out | activation, %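 (tested at 5 µM)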 | 140,000 compounds, 0.48% hits | AID 803;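 active means above mean plus 3 SD of all compounds, about 5% in these data, not always enough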;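 further: 0% = vehicle buffer wells and 100% = reference agonist at full effect; tested in CHO reporter cells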
Target sequence (O43603 whole entry, looked up): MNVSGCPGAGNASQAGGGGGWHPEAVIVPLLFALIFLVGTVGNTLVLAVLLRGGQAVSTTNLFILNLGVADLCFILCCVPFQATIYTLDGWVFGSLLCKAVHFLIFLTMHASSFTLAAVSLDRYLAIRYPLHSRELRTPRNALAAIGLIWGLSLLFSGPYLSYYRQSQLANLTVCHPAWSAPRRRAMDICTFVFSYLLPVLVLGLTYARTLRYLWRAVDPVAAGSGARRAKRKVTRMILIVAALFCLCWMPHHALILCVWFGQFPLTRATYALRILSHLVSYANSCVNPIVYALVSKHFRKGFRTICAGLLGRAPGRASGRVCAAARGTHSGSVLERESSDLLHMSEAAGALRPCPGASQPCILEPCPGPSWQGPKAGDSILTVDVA
INS promoter inh cell count = also measured in INS promoter inh; calls as there; normalized cell count, %; measured here: cell count, toxicity; reference of the scale not given here;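 cells exposed to compound for 48 h; stained nuclei by imaging scaled within each plate; lower means fewer cells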
HSV replic up primary fold = recorded beside HSV replic up, whose call it bears; fold increase; compound at 10 µM; measured here: primary screen fold increase 10 uM; tested in PC3 cells;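 GFP signal in the first replicate; 1 = infected wells without compound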
Numbers without * were called inactive; i = inactive; ? = inconclusive; . = not tested or not shown. Outcome played no part in choosing rows; overall some 1.3% were active at least once.

SMILES | INS promoter inh | INS promoter inh cell count | RGS16-Gao | HSV replic up | HSV replic up primary fold | PKD1 inh | GALR2 ag
COc1ccc2nc3oc(C(=O)N4CCN(c5ccccc5F)CC4)cc3cc2c1 | 41.7 | 102.0 | 95.2 | ? | . | -5.3 | -0.8
Cc1ccc(C(=O)Nc2cc(Cl)ccc2OC(=O)c2ccc(C)cc2)cc1 | . | . | 100.0 | . | . | -3.6 | -2.1
CCCCOc1ncnc2c1[nH]c1ccc(F)cc12 | . | . | 100.2 | i | 0.87 | -2.8 | -2.7
CC1Cc2cc(-c3csc(NC(=O)Cc4ccccc4)n3)ccc2N1S(C)(=O)=O (configuration not stated) | -50.0 | 97.2 | 104.6 | i | 0.9 | -0.1 | -2.5
CCNC(=O)CC1SC(=Nc2ccc(Cl)cc2)N(CC)C1=O (configuration not stated) | -31.4 | 83.8 | 113.2 | i | 0.98 | -5.3 | -0.8
Cc1nnc(NC(=O)c2ccc3c(c2)C(=O)N(CCC(C)C)C3=O)s1 | -23.1 | 65.4 | 100.5 | i | 1.06 | -1.8 | -1.3
Cc1cc(C)cc(NC(=S)NCc2cccnc2)c1 | -3.3 | 103.3 | 99.3 | i | 0.95 | -5.4 | -0.3
Cc1ccc2c3c1C1(C(=O)N3C(C)(C)CC2C)C(C#N)=C(N)Oc2cc(O)ccc21 (configuration not stated) | -73.7 | 223.4 | 103.0 | i | 0.9 | -19.6 | -0.5
Cn1ncn2c(=O)c3c(nc12)-c1ccccc1CC31CCCC1 | . | . | 104.9 | i | 0.99 | . | .
O=C(CSc1n[nH]c(-c2ccccc2O)n1)N1CCCc2ccccc21 | -45.5 | 136.9 | 100.5 | i | 0.87 | 6.5 | -2.3

Copied from the list.
INS promoter inh cell count with `Cc1ccc2c3c1C1(C(=O)N3C(C)(C)CC2C)C(C#N)=C(N)Oc2cc(O)ccc21` (configuration not stated) is entered as 223.4
INS promoter inh with `Cc1nnc(NC(=O)c2ccc3c(c2)C(=O)N(CCC(C)C)C3=O)s1` is entered as -23.1

(next part)
SMILES | INS promoter inh | INS promoter inh cell count | RGS16-Gao | HSV replic up | HSV replic up primary fold | PKD1 inh | GALR2 ag
Cc1ccc(CNC(=O)c2ccc(-n3cccc3)cc2)cc1 | 100.0* | 46.0* | 79.0 | . | . | -7.1 | .
C/C=C(/C)C(=O)Nc1cccc(C2=NOC3(C2)C[C@H](C(N)=O)N(C(=O)c2ccccc2)C3)c1 (some centres not stated) | . | . | 99.9 | i | 0.87 | . | .
COc1ccc(/C=N/NC(=O)CNc2n[nH]c(=O)[nH]c2=O)cc1OC | . | . | 102.0 | i | 0.88 | -0.6 | -0.1
Cc1ccc(Cn2c(N)c(S(=O)(=O)c3cccs3)c3nc4ccccc4nc32)cc1 | -37.2 | 71.6 | 111.0 | i | 1.04 | 2.4 | 1.7
CC1(C)Cc2c(sc3nc4n(c(=N)c23)CCCCC4)CO1 | -40.5 | 100.5 | 101.6 | i | 1.01 | 0.8 | 0.3
CCOC(=O)C(NCc1ccccn1)(NC(=O)c1cccnc1)C(F)(F)F (configuration not stated) | . | . | 101.5 | i | 0.89 | 1.1 | -0.6
CC1(C)CC(=O)c2cc(NC(=O)c3ccc(F)cc3)c(=O)oc2C1 | . | . | 99.8 | i | 0.94 | -6.0 | .
S=C(NCCCN1CCOCC1)NC1CC1 | . | . | 100.8 | i | 1.02 | 1.4 | .
Cc1ccccc1C(=O)NNC(=O)/C=C\C(=O)O | . | . | 97.2 | i | 1.02 | . | .
Nc1ccc(-c2cc(-c3cccc(N)c3)nc(-c3ccccc3)n2)cc1 | . | . | 99.8 | i | 0.76 | -6.8 | -0.8
Cc1nc2ncc(Br)cc2[nH]1 | 50.0 | 124.3 | 106.1 | i | 0.88 | -5.5 | -1.7
O=C(Cc1ccc(Cl)c(Cl)c1)Nc1ccc2[nH]c(=O)[nH]c2c1 | . | . | 100.4 | i | 0.93 | 0.1 | .
CCOC(=O)/C(=C/C=C1\Sc2cc(C)c(C)cc2N1CC)C(C)=O | . | . | 98.2 | ? | . | -6.9 | .
CC(C)(C)c1ccc(/C=N/NC(=S)Nc2cccnc2)cc1 | . | . | 103.1 | i | 0.9 | -6.0 | .
Cc1ccc(C2CC(=O)Nc3cc4c(cc32)OCCO4)s1 (configuration not stated) | -27.8 | 71.6 | 101.2 | i | 0.94 | -8.6 | -2.4
O=C(NCc1ccco1)C(c1ccccc1F)N(Cc1cccnc1)C(=O)Cn1nnc2ccccc21 (configuration not stated) | . | . | 106.8 | i | 0.91 | 0.6 | -1.8
COc1ccc(NC(=O)c2ccc(Br)o2)c([N+](=O)[O-])c1 | . | . | 105.2 | i | 0.87 | -1.4 | -0.9
CCCS(=O)(=O)N1CCCC(C(=O)NCc2ccco2)C1 (configuration not stated) | . | . | 115.3 | i | 1.03 | 2.9 | -0.8
CCOC(=O)CSc1nnc(CSc2nc3sc4c(c3c(=O)[nH]2)CCC4)n1C | . | . | 100.0 | i | 0.92 | -10.1 | -0.1
COc1cc2c(cc1NCc1ccc3c(c1)OCO3)oc1ccccc12 | 50.0 | 138.8 | 101.4 | i | 0.947 | -4.7 | -1.6
CC(C)CCN1CC(C(=O)NC(C)C)CC1=O (configuration not stated) | . | . | 96.7 | i | 0.79 | -16.0 | -2.4
C1CCN(C2CCN(c3nc4nonc4nc3N3CCSCC3)CC2)C1 | . | . | 103.1 | i | 1.07 | -0.7 | .
Cn1c(=O)oc2cc(S(=O)(=O)NCc3ccc(C(=O)O)cc3)ccc21 | . | . | 96.9 | ? | . | . | .
Cc1nn2c(-c3ccccc3)nnc2c2ccccc12 | -450.0 | 55.4 | 103.2 | i | 1.02 | 3.6 | -1.1
O=C(CNC(=S)N(Cc1ccccc1)Cc1cccnc1)NC1CCCCC1 | . | . | 113.6 | i | 0.96 | -13.0 | 0.3
COC(C[C@@H](O)CC(=O)COCc1ccccc1)OC | . | . | 99.1 | i | 1.12 | . | .
COc1ccc(N(CC(=O)NCc2ccccc2)C(=O)CCC(=O)Nc2cc(C)ccn2)c(OC)c1 | . | . | 100.5 | i | 0.98 | . | .
CCOC(=O)c1c(C)[nH]c(C)c1C(=O)COC(=O)c1ccc(Cl)c(S(N)(=O)=O)c1 | 18.9 | 91.4 | 108.2 | i | 1.02 | -3.9 | -0.5
CC1=C(C(=O)OCC2CCCO2)C(c2ccccc2Cl)NC(=O)N1 (configuration not stated) | . | . | 107.8 | i | 1.05 | -2.6 | -2.0
Cc1cccc(C(=O)NC2CCN(CC(=O)Nc3ccc4c(c3)OCO4)CC2)c1 | . | . | 107.3 | i | 0.93 | -8.6 | .

Only RGS16-Gao and INS promoter inh cell count (two entries from above):
Structure	RGS16-Gao	INS promoter inh cell count
Cc1nn2c(-c3ccccc3)nnc2c2ccccc12	103.2	55.4
O=C(CNC(=S)N(Cc1ccccc1)Cc1cccnc1)NC1CCCCC1	113.6	.

(further entries)
SMILES | INS promoter inh | INS promoter inh cell count | RGS16-Gao | HSV replic up | HSV replic up primary fold | PKD1 inh | GALR2 ag
Cc1[nH]c(=O)c(C(=O)/C=C/c2ccccc2F)c2c1CCCC2 | . | . | 103.9 | i | 0.68 | 0.4 | -0.7
N#CCCCN1C(=O)C(O)(CC(=O)c2ccc3c(c2)OCCO3)c2ccccc21 (configuration not stated) | 8.6 | 130.4 | 98.3 | i | 0.957 | -9.1 | -1.7
N#Cc1cc([N+](=O)[O-])cnc1NCC(O)CO (configuration not stated) | 18.0 | 131.4 | 95.4 | i | 0.93 | 5.1 | -2.3
CC(C)NC(=O)NC(=O)CSc1nnc(C(F)(F)F)n1C | . | . | 99.1 | i | 0.94 | -1.9 | .
O=C(C1=NNCC1c1ccccc1)C1CO1 (configuration not stated) | -16.0 | 41.5 | 104.3 | i | 0.76 | -8.6 | -1.5
COC(=O)C1=CN(C(C)C)C=C(C(=O)OC)C1c1cccc(OC)c1 | -84.6 | 110.2 | 50.0 | . | . | -8.8 | 21.1*
CCOC(=O)N1CC=C2C(C#N)=C(N)C(C#N)(C#N)[C@H](c3ccc(OCC)c(OCC)c3)[C@H]2C1 | -18.2 | 78.5 | 69.5 | i | 1.2 | -3.6 | -0.2
CC(C)(C)OC(=O)[C@H](Cc1ccccc1)NC(=O)c1nc[nH]c1C(=O)NC1CCN(C(=O)OC(C)(C)C)CC1 | . | . | 104.3 | i | 0.75 | -1.0 | .
COc1cccc(OCCNC(=O)c2cc([N+](=O)[O-])cc([N+](=O)[O-])c2)c1 | 33.3 | 73.0 | 102.6 | i | 0.96 | -7.2 | .
Cc1cc(Oc2ccccc2)nc(SCC(N)=O)n1 | 18.4 | 158.3 | 103.0 | i | 1.06 | 2.2 | -0.7
Cc1cc(NC(=O)Nc2cccc([N+](=O)[O-])c2)no1 | . | . | 118.7 | i | 0.87 | 6.1 | .
CC(=O)c1cccc(S(=O)(=O)N(Cc2cc3cc4c(cc3[nH]c2=O)OCCO4)CC2CCCO2)c1 (configuration not stated) | -42.9 | 62.0 | 95.8 | i | 0.91 | -6.3 | -1.1
COc1cc(/C=N/Nc2ccccc2[N+](=O)[O-])ccc1OC(=O)c1ccccc1F | . | . | 97.3 | i | 0.84 | 4.5 | .
CN(c1cccc(NS(=O)(=O)c2cccc([N+](=O)[O-])c2)c1)S(C)(=O)=O | -2.9 | 77.1 | 95.0 | i | 1.1 | 7.7 | .
CCS(=O)(=O)N1CCC(C(=O)NCc2cccnc2)CC1 | . | . | 103.4 | i | 1.08 | 8.4 | -1.3
CCn1c(SCc2cccc(C(F)(F)F)c2)nnc1-c1ccco1 | 5.6 | 154.6 | 20.6 | i | 0.71 | -8.5 | 0.4
Cc1nc(Cl)sc1C(=O)O | -66.7 | 85.1 | 106.7 | i | 0.87 | -5.6 | -0.1
CCC(C)NC(=O)c1cc(-c2ccccc2O)on1 (configuration not stated) | . | . | 100.8 | i | 0.87 | -9.9 | -1.2
CC1(C)CC(=O)c2c(Cc3ccccc3)noc2C1 | . | . | 120.0 | i | 1.12 | -2.4 | .
O=C(COC(=O)C1(c2ccc(Cl)cc2)CCCC1)Nc1ncc(C(F)(F)F)cc1Cl | . | . | 103.1 | i | 0.99 | -8.8 | -0.6

Reformatted with tabs: part of the list above.
Structure	INS promoter inh	INS promoter inh cell count	RGS16-Gao	HSV replic up	HSV replic up primary fold	PKD1 inh	GALR2 ag
C/C=C(/C)C(=O)Nc1cccc(C2=NOC3(C2)C[C@H](C(N)=O)N(C(=O)c2ccccc2)C3)c1 (some centres not stated)	.	.	99.9	i	0.87	.	.
COc1ccc(/C=N/NC(=O)CNc2n[nH]c(=O)[nH]c2=O)cc1OC	.	.	102.0	i	0.88	-0.6	-0.1
Cc1ccc(Cn2c(N)c(S(=O)(=O)c3cccs3)c3nc4ccccc4nc32)cc1	-37.2	71.6	111.0	i	1.04	2.4	1.7
CC1(C)Cc2c(sc3nc4n(c(=N)c23)CCCCC4)CO1	-40.5	100.5	101.6	i	1.01	0.8	0.3
CCOC(=O)C(NCc1ccccn1)(NC(=O)c1cccnc1)C(F)(F)F (configuration not stated)	.	.	101.5	i	0.89	1.1	-0.6

Continued:
SMILES | INS promoter inh | INS promoter inh cell count | RGS16-Gao | HSV replic up | HSV replic up primary fold | PKD1 inh | GALR2 ag
O=C(c1cc(COc2c(F)cccc2F)on1)N1CCC(c2ccccc2F)C1 (configuration not stated) | . | . | 110.2 | i | 0.88 | -5.1 | .
O=C(Nc1nccs1)c1cc(S(=O)(=O)N2CCCCC2)ccc1Cl | 14.3 | 119.0 | 98.4 | i | 0.91 | -6.4 | -1.0
Cc1ccc(-n2nc(C)c(/C=N/NC(=O)c3cccnc3)c2Cl)cc1 | 10.8 | 82.7 | 91.3 | i | 0.96 | -7.4 | -1.4
CCn1c(=S)[nH]c2nc3c(cc2c1=O)CCCC3 | 8.6 | 141.8 | 94.8 | i | 0.95 | 2.7 | -1.1
CC(C)(C)N1NC(=O)Nc2ccccc2C1=O | 64.3 | 45.2 | 118.3 | i | 0.98 | 6.1 | -1.6
Cc1noc(C)c1CSc1ncnc2sc3c(c12)CCCCC3 | -50.0 | 49.0 | 96.2 | i | 1.04 | -7.5 | -0.1
COc1ccccc1C(=O)COC(=O)c1ccc(N(C)C)cc1 | . | . | 101.6 | i | 0.87 | -3.8 | .
CCOC(=O)c1sc(NC(=O)CSc2nnnn2-c2ccc(C)c(C)c2)nc1C | . | . | 101.5 | i | 1 | 2.0 | -2.2
Cc1cccc(OCc2nnc(SCC(=O)N(C(C)C)C(C)C)n2Cc2ccco2)c1C | . | . | 227.1 | i | 1.01 | -1.4 | 0.2
